Assay outcomes: PubChem BioAssay, ICCB-Longwood Screening Facility, Harvard Medical School
AID504770: growth inhibitors of E. coli YBA685 in a screen for V. cholerae RctB (chromosome II replication) inhibitors | AID 504770 | 130,000 compounds, 0.27% hits | z-score (concentration not given with the values) | E. coli YBA685 rctB-dependent plasmid, OD600 growth, 3 h; hits give low values;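 active = z-score under -2 on both plates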;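 note: wells of about 30 µL received 100 nL stock; score is relative to mean and SD of the test wells; the first replicate is given; strong numbers were not always called active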
CapD inh: CapD enzyme inhibition. purified CapD enzyme, fluorescence intensity read-out; hits give low values; some hits fall short of the stated cut. z-score (test concentration not listed). 140,000 compounds, 0.23% hits. AID 492967;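 active = z-score under -4 in either of two replicates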;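 note: stock transfer was 100 nL into about 40 µL; score is relative to mean and spread of the plate; one replicate is shown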
The depositor's hits bear a star; / = not tested or not shown. Some of the compounds tested; rates above refer to the full screens.

SMILES	AID504770	CapD inh
Cn1nc(-c2ccc(Cl)cc2)cc1NC(=O)Cn1nnc(-c2ccccc2)n1	-0.15	/
COC(=O)C1=C(Nc2ccccc2NC(=O)COCC(=O)O)CSC1	-0.9	-0.32
O=C(CSc1nnc(NC(=O)c2ccc(Cl)c([N+](=O)[O-])c2)s1)Nc1ccccc1F	/	-0.34
Cc1onc(-c2c(F)cccc2Cl)c1C(=O)Nc1ccccc1N1CCOCC1	0.05	0.63
COc1ccc(-c2c3c(=O)c4ccccc4c3nc3c2c(=O)c2ccccc23)cc1OC	/	-0.78
CC(C)(C)c1ccc(OCCOc2ccc(C=C3C(=O)NC(=S)NC3=O)cc2)cc1	/	-1.4
COc1cc(/C=C2\N=C(c3cc([N+](=O)[O-])ccc3Cl)OC2=O)cc(OC)c1OC	/	0.07
NS(=O)(=O)c1ccc(NC(=O)c2cc(-c3ccccc3)nc3ccccc23)cc1	/	1.5
Brc1c(-c2ccccc2)nc2n1CCC2	-0.55	-0.015
COc1ccc(-n2nnnc2C2(Nc3ccc(C)cc3)CCCCC2C)cc1 (centres undefined)	/	-0.055
c1csc(-c2nc(-c3ccc(-c4ccon4)s3)no2)c1	0.65	3
CC(C)(Oc1ccc(Cl)cc1)C(=O)N1CCN(c2ccc(C(F)(F)F)cn2)CC1	0.3	/

Entries of single compounds as entered above. Values in the order: AID504770	CapD inh
Record of Cn1nc(-c2ccc(Cl)cc2)cc1NC(=O)Cn1nnc(-c2ccccc2)n1 : -0.15	/
Record of Brc1c(-c2ccccc2)nc2n1CCC2 : -0.55	-0.015
Record of CC(C)(Oc1ccc(Cl)cc1)C(=O)N1CCN(c2ccc(C(F)(F)F)cn2)CC1 : 0.3	/
Record of COc1ccc(-c2c3c(=O)c4ccccc4c3nc3c2c(=O)c2ccccc23)cc1OC : /	-0.78
Record of O=C(CSc1nnc(NC(=O)c2ccc(Cl)c([N+](=O)[O-])c2)s1)Nc1ccccc1F : /	-0.34

(listing goes on)
SMILES	AID504770	CapD inh
CC(C)N(C(=O)NC(=O)Nc1ccc(C=C(C#N)C#N)cc1)S(C)(=O)=O	-0.25	/
CSc1ncc(-c2ccncn2)c(-c2ccc(C(F)(F)F)cc2)n1	/	-0.17
COCn1c(COc2ccc3ccccc3c2)nc2ccccc21	0.35	-0.29
CCOC(=O)c1c(CCc2ccc3c(c2)OCO3)csc1N	1	/
CCOC(=O)c1c(N(C)S(C)(=O)=O)sc(C)c1C	-0.15	0.1
O=C(Cn1cnc2c(cnn2-c2ccccc2)c1=O)NCCc1ccccc1	-0.05	/
O=C1CSc2ccc(C(F)(F)F)cc2N1	-0.35	0.22
COC(=O)c1ccccc1Sc1c(/C=N/O)c(C(F)(F)F)nn1C	/	-0.33
Cc1ccc(S(=O)(=O)NNC(=O)C2Cc3c(ccc4ccccc34)O2)cc1 (centres undefined)	/	4.6
COc1ccc(-c2[nH]ncc2-c2ccc3ccccc3n2)cc1	/	22
CC(=NCc1ccncc1)c1ccccc1O	/	-0.78
O=C(O)c1ccccc1SCC(=O)N1CCCC1	1.4	-0.74
COCCOC(=O)c1c(C)oc2ccc(OCc3c(F)c(F)c(F)c(F)c3F)cc12	/	0.17
FC(F)(F)c1cc(Cl)c2nnc(-c3ccc(Cl)cc3Cl)n2c1	/	-0.15
FC(F)(F)c1[nH]ncc1-c1ccccc1	-1.4	0.33
CC(C)Cn1c(C(O)c2ccccc2)nc2ccccc21 (centres undefined)	-0.7	0.95
CCC(C)NC(=O)CSc1nc2ccc(N3CCOCC3)cc2c(=O)n1Cc1ccc2c(c1)OCO2 (centres undefined)	-0.25	1.4
CCn1c(C(=O)O)c(CNC2CCC(C)CC2)c2ccccc21 (centres undefined)	0.4	0.61
COc1cc(C2C(C(=O)N3CCOCC3)=C(C)NC3=C2C(=O)CCC3)cc(Br)c1O (centres undefined)	/	12
CCC12CN(S(=O)(=O)c3ccc(C)cc3)CC(CC)(CN(S(=O)(=O)c3ccc(C)cc3)C1)C2=O	0.15	-0.2
COC(=O)c1ccccc1NC(=O)COC(=O)c1ccco1	-0.8	/
Cc1ccc2[nH]c(=O)c(C=NC(CO)(CO)CO)c(O)c2c1	-0.1	1.7
CC(C)CCn1c(SCc2ccc(F)cc2)nc2nccnc2c1=O	0.05	-0.51
Cn1nc(C(=O)NCCCN2CCN(CCCNC(=O)c3ccc(=O)n(C)n3)CC2)ccc1=O	-0.1	/
Cc1ccc(N=C2C(=O)Nc3ccccc32)cc1	-0.8	-1.3
CNCc1ccccc1Br	0.65	/
O=C(Nc1ccccc1)C1CC2CCCC(C1)C2=O (centres undefined)	-0.5	0.52
Cc1cc(N)n(-c2nc(C)nc3sc4c(c23)CCC(C)C4)n1 (centres undefined)	0.05	/
CN(CCCNC(=O)N1CCN(C(c2ccccc2)c2ccccc2)CC1)c1ccccc1	/	-0.32
CCCNC(=O)Cn1sc2nc(C)cc(C)c2c1=O	-1.6	4.6
CCN1C(=O)CC(C(=O)Nc2ccc(OC)cc2)SC1=Nc1ccccc1 (centres undefined)	0.05	0.04
CCOC(=O)C1CCCC1=O (centres undefined)	-0.85	-1.1
CN(C)c1cc[n+](CC(=O)N2CCCc3ccccc32)cc1	-0.75	/
Cc1ccc(C(=O)OCc2c(C#N)oc3ccc(Br)cc23)cc1C	-3.5	/
C=CCNC(=O)C1CCN(c2ncccn2)CC1	-1.4	6.7
CC(C)(C)CC[n+]1ccc(/C=N/O)cc1	0.1	-0.41

The last 3 records of the part above lead into the next:
SMILES	AID504770	CapD inh
Cc1ccc(C(=O)OCc2c(C#N)oc3ccc(Br)cc23)cc1C	-3.5	/
C=CCNC(=O)C1CCN(c2ncccn2)CC1	-1.4	6.7
CC(C)(C)CC[n+]1ccc(/C=N/O)cc1	0.1	-0.41
O=C1CN(C(=O)CCc2ccccc2)c2ccccc2N1	1.1	2.1
Cc1noc(C)c1COc1ccc(CC(=O)NC2CCCCCC2)cc1	1.3	/
COc1cccc(OC)c1C(=O)Oc1ccc2c(=O)c(-c3ccccc3Cl)coc2c1	/	-0.24
OC1CCN(Cc2cccc(Br)c2)CC1	0.6	0.49
Fc1ccc(CN2CCN(c3ncccn3)CC2)cc1F	-0.5	0.24
CC1(C)CC(=O)CC(=Nc2ccc3[nH]c(=O)[nH]c3c2)C1	-0.25	-1.9
C=CCC1(NCCc2ccccc2)CCCCC1	-0.55	0.88
CN(C)Cc1nc2c(c(=O)[nH]1)C(C)(C)Cc1ccccc1-2	-0.35	-0.26
COc1ccccc1N1CCN(S(=O)(=O)c2cc(Cl)ccc2OC)CC1	/	-0.085
Cc1noc(C)c1COc1ccc2ccccc2c1Br	-0.05	/
COc1ccc2oc(=O)c(C(=O)N3CCC(C(N)=O)CC3)cc2c1	0.15	/
CC1(C)OC(=O)N(CCCN2CCOCC2)C1(C)O (centres undefined)	0.7	0.2

Arranged by molar mass (ascending): some entries from above
SMILES	AID504770	CapD inh
OC1CCN(Cc2cccc(Br)c2)CC1	0.6	0.49
CC1(C)CC(=O)CC(=Nc2ccc3[nH]c(=O)[nH]c3c2)C1	-0.25	-1.9
COc1ccc2oc(=O)c(C(=O)N3CCC(C(N)=O)CC3)cc2c1	0.15	/

Following part.
SMILES	AID504770	CapD inh
COc1ccc(NC(=O)c2ccc(Cl)cc2)cc1	-0.3	0.025
CC(=O)N1CCC(N(C2CC2)S(=O)(=O)c2ccc(NS(=O)(=O)c3ccc(C)cc3)cc2)CC1	/	-0.04
O=C(Nc1nc(SCc2ccc(Cl)cc2)n[nH]1)C1CC(=O)N(C2CCCC2)C1 (centres undefined)	-0.25	/
Cc1nn(-c2ccccc2)nc1C(=O)ONC(=O)Cc1ccccc1	0	0.36
COc1ccccc1/C=C(/C(=O)OCc1cc(C)on1)c1ccccc1	0.6	/
Cn1cccc1C(=O)OCc1cc(=O)oc2cc(O)ccc12	-0.35	/
CCCCNC(=O)c1c(N)no[n+]1[O-]	-1.5	/
Cc1noc(C)c1-c1nnc(-c2ccc(Cl)cc2)o1	-0.2	0.49
CCc1ccccc1NC(=O)CCC(=O)N1CCSc2ccccc21	1.5	-0.42
O=c1[nH]c2ccccc2c(O)c1C1=NS(=O)(=O)c2ccccc2N1	-0.25	/
Cc1ccc(N2C(=O)N(CC(=O)N3CCC(C)CC3)C3CS(=O)(=O)CC32)cc1Cl (centres undefined)	-0.9	1.1
CCOc1ccc(OCC)c(C(=O)C2CCCCC2)c1	-0.55	6.3
O=C(O)c1ccccc1C(=O)NC1=NN(c2ccccc2)CC1	-0.85	/
CCOC(=O)C1CCN(c2ncnc3scc(C)c23)CC1	-0.7	0.035
COCCN1C(=O)c2ccccc2C(C(=O)NCc2ccccn2)C1c1ccc(F)cc1 (centres undefined)	0	-0.78
Cc1ccc(C)c(N2CCN(S(=O)(=O)c3ccc4c(c3)OCCO4)CC2)c1	0.45	/
Cc1nc2ccccc2nc1C(N)=O	0.85	0.08
CCOc1cccc2cc(C(=O)Nc3ccc(OC)cc3)c(=Nc3ccc(C(=O)O)cc3)oc12	/	0.015
CC(=O)O/N=C1\C(=O)N(Cc2ccc(Cl)cc2)c2ccc(Cl)cc21	/	-1.3
CC1S/C(=C/c2nc3ccccc3s2)NC1=O (centres undefined)	0.45	7
Cc1ccc(C23CCC(=O)N2C(C(=O)NCCc2ccccn2)CS3)cc1 (centres undefined)	-0.45	/
FC(F)(F)Oc1ccc(C2c3ccsc3CCN2Cc2ccccc2)cc1 (centres undefined)	-0.05	0.23
CCN(CC)c1ccc2cc(C(=O)NC3CCCCC3)c(=O)oc2c1	-0.65	-0.55
COc1ccc(/C=c2/sc3nc4ccccc4n3c2=O)cc1OC	-0.9	-0.045
O=c1c2ccccc2nc2n1CCCCC2	2.2	-0.72
Cc1ccc2[nH]c(=O)c(CNc3ccc(N4CCCCC4)c(CO)c3)cc2c1	0.65	-0.14
COC(=O)c1cc(OC)c(OC)cc1NC(C)=O	-0.3	16
O=C(NC1CCCCC1)N(Cc1cc2cc3c(cc2[nH]c1=O)OCCO3)C1CCCCC1	-0.45	/
c1ccc(-c2nc3c4ccccc4nc(NCCN4CCN(c5ccccc5)CC4)n3n2)cc1	1.8	-1.7
CC(OC(=O)c1ccc2c(c1)S(=O)(=O)c1ccccc1C2=O)C(N)=O (centres undefined)	-0.2	/
C/C(=N\NC(N)=O)c1ccc(C)c(C)c1	-0.15	/
CCc1ccccc1N(C)S(=O)(=O)c1ccc(-c2cc(C(F)(F)F)no2)s1	-0.3	-0.29
Cn1nc(C(F)(F)F)c(/C=N/OCc2c(Cl)cccc2Cl)c1Cl	/	-0.72
CC(COC(=O)N(C)CCCN1c2ccccc2CCc2ccccc21)c1ccccc1 (centres undefined)	/	-0.82
O=c1ccc2cc3c4c(c2o1)CCCN4CCC3	-0.3	64
Cc1csc(-c2cc3ccc(OCc4c(F)c(F)c(F)c(F)c4F)cc3oc2=O)n1	/	2
Brc1ccc(C=NC2C3CC4CC(C3)CC2C4)cc1 (centres undefined)	1.9	-0.47
CC(C)(C)c1ccc(=O)[nH]n1	1.4	-0.98
CC(=O)N1CCC(c2nc(-c3ccc(Cl)cc3)no2)CC1	-0.6	0.1
COCCN(C1CCN(C(=O)c2ccc(Cl)nc2)CC1)S(=O)(=O)c1ccccc1	/	-0.47
Cc1ccc(C)c(-c2csc(-c3cc4cc(Br)ccc4oc3=O)n2)c1	/	-0.82
O=C(NCC(c1ccco1)N1CCCCC1)c1ccc2c(c1)S(=O)(=O)c1ccccc1C2=O (centres undefined)	1.3	/
CCCSc1ccc(C(=O)Nc2ccc(Cl)cc2)cn1	-0.2	-0.21
O=C(c1scc2c1CCCC2)N1CCN(c2ccccc2O)CC1	-0.25	-0.7
COCCCN1Cc2cccc(C(=O)O)c2C1=O	1.1	-0.95
Cc1ccc(S(=O)(=O)NCc2c(-c3ccccc3)noc2C)cc1	-0.35	-0.07
CCCn1c(SCC(=O)N(C2=CCCCC2)C2CC2)n[nH]c1=O	-0.3	/
CSc1nc2ccccc2n1CC(=O)N1CCc2ccccc21	0	/
CC(CC1C(C#N)=C(N)OC2=C1C(=O)CCC2)c1ccccc1 (centres undefined)	-0.1	-0.065
CCN1CCN(Cc2c(C)[nH]c3ccc(C)cc3c2=O)CC1	1	0.58
N#CC1=C(SCC(=O)Nc2nc3ccccc3s2)NC(=O)C(C#N)C12CCCCC2 (centres undefined)	/	-0.95
COc1cc(C2C(C(=O)Nc3cccc(F)c3)=C(C)NC3=C2C(=O)CC(c2ccccc2)C3)ccc1O (centres undefined)	/	12
Cc1ccc(S(=O)(=O)N2CCCCC2C(=O)N(C)Cc2ccccc2)cc1 (centres undefined)	-0.45	0.12
Cc1nn(C)c(Oc2cccc(C(F)(F)F)c2)c1C(=O)O	0.35	-0.92
c1ccc(-c2cccs2)nc1	-1.6	4.8
Cc1cc2nc3s/c(=C/c4ccc(-c5cc([N+](=O)[O-])ccc5Cl)o4)c(=O)n3c2cc1C	/	0.33
O=S(=O)(CC(O)(c1ccccc1)c1ccccc1)c1ccc(Cl)cc1	/	-0.43
S=C(NCCc1ccncc1)Nc1ccccc1	-0.3	0.42
CC(=O)Nc1nonc1NC(=O)c1ccc(C)cc1	0.55	0.27
CCOC(=O)c1cc(C#N)c(C)nc1N1CCN(C(=O)OCc2ccccc2OC)CC1	/	0.81
The list goes on:
SMILES	AID504770	CapD inh
CCOc1ccc(S(=O)(=O)NC(C)C(=O)NC2CCCC2)cc1 (centres undefined)	-0.85	-0.32
Cc1ccc(-c2c[n+](=O)c3c(n2[O-])CCC3)cc1	0.3	0.04
Cc1cc(=O)[nH]c2c1c(-c1ccccc1)nn2C	-0.1	0.18
O=C1c2ccccc2C(=O)N1CNc1ccc(I)cc1	2.3	-0.21
